# FGF22 binding = binders of recombinant human FGF22 by thermal shift; Q9HCT0; SYPRO orange fluorescence; percent of sucrose octasulfate shift, DMSO zero; calls only at 9.99 µM; 340,000 compounds, 1.5% hits; AID 651658;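 active means melting point raised past a set limit in the mean and every replicate; three in four hits are not shown here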
# Target sequence (Q9HCT0 whole entry, looked up): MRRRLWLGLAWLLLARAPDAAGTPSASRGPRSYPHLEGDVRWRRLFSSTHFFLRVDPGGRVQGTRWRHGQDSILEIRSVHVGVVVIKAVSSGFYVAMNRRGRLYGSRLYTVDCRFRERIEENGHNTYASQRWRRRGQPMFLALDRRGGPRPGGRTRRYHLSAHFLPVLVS
# AF4-AF9 inh = inhibitors of human MLL-AF4/AF9 interaction. P42568. AlphaScreen, biotin-AF4 peptide binding to FLAG-AF9. inhibition, % at 10 µM. 350,000 compounds, 0.47% hits;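 active means every replicate reaching a set inhibition limit, whatever the replicate mean, cut at about 25% in these data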;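 further: 0% = plate neutral control median and 100% = total signal loss; the record names both 10 and 1 µM as test concentration; the first replicate is given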
# Target sequence (P42568 whole entry, looked up): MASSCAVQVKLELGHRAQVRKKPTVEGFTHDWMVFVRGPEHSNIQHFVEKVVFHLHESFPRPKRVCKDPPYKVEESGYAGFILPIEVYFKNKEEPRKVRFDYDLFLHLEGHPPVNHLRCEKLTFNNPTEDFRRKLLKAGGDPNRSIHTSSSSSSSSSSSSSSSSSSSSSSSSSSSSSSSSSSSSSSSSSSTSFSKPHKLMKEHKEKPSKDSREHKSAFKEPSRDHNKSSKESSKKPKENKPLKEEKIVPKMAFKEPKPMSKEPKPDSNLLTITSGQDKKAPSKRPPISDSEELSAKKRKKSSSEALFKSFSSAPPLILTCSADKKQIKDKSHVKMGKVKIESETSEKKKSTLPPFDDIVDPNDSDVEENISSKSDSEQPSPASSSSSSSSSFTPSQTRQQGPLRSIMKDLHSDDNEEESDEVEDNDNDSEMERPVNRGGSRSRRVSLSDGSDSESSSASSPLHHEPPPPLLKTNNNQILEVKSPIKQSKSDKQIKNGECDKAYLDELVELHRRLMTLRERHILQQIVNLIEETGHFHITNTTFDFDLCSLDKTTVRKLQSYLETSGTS
# * = called active by the depositor; i = inactive; / = no result given. The list is partial; count on the stated rates, not on these rows.
SMILES,FGF22 binding,AF4-AF9 inh
C[C@@H]1CN([C@H](C)CO)C(=O)c2cc(C#CC3(O)CCCC3)cnc2O[C@H]1CN(C)C(=O)CN(C)C,i,-2.7
COCC(=O)N(C)C[C@H]1[C@H](c2ccccc2)[C@@H](CO)N1C(=O)Cc1ccncc1,i,-1.6
C/C=C/c1ccc2c(c1)O[C@@H](CN(C)Cc1ccc(C(=O)O)cc1)[C@@H](C)CN([C@@H](C)CO)S2(=O)=O,i,3.2
C[C@@H]1CN([C@@H](C)CO)S(=O)(=O)c2ccc(-c3cncnc3)cc2O[C@@H]1CN(C)C(=O)Cc1ccccc1,i,-0.6
C[C@H]1CN([C@@H](C)CO)C(=O)c2cc(NC(=O)Nc3cccc4ccccc34)ccc2O[C@H]1CN(C)Cc1ccc(-c2ccccc2)cc1,i,0.4
COCC(=O)Nc1ccc2c(c1)C(=O)N(C)[C@H]1CC[C@H](CC(=O)NCCc3ccccc3)O[C@H]1CO2,i,-1.0
C[C@@H]1CCCCO[C@H](CN(C)C(=O)Nc2ccc(F)cc2)[C@H](C)CN([C@H](C)CO)C(=O)c2cc(NC(=O)CCC(F)(F)F)ccc2O1,i,-0.8
C[C@H]1CN([C@@H](C)CO)C(=O)c2cc(C#CC3(O)CCCC3)cnc2O[C@@H]1CN(C)Cc1ccccn1,i,0.0
CO[C@@H]1CN(C)C(=O)c2cc(NC(=O)Nc3ccccc3F)ccc2OC[C@@H](C)N(Cc2ccccc2C(=O)O)C[C@H]1C,i,-2.6
COc1ccc(C(=O)N2C[C@@H]3[C@H](c4ccccc42)[C@@H](CO)N3C(=O)NC(C)C)cc1,i,-0.7
C[C@@H]1CCCCO[C@@H](CN(C)Cc2ccc3c(c2)OCO3)[C@H](C)CN([C@H](C)CO)C(=O)c2cc(NC(=O)NC3CCCCC3)ccc2O1,i,7.1
CC(C)NC(=O)N(C)C[C@@H]1Oc2ncc(C3=CCCCC3)cc2C(=O)N([C@@H](C)CO)C[C@@H]1C,i,-11.3
C[C@H]1CN([C@@H](C)CO)C(=O)c2cccc(NC(=O)C3CC3)c2O[C@@H]1CN(C)Cc1ccncc1,i,-4.5
CCC(=O)N1CC2(C1)CN(Cc1cccc(F)c1)[C@H](CO)c1c2c2ccc(OC)cc2n1C,i,-2.4
COC(=O)C1=C(C)N(Cc2cccc(C(F)(F)F)c2)C(=NCc2cc(OC)c(OC)c(OC)c2)NC1c1ccccc1 (stereo not given),/,6.1
CCNC(=O)[C@H]1[C@H](CO)[C@H]2Cn3c(ccc(/C=C/c4ccccc4)c3=O)[C@H]2N1C(=O)C1CC1,i,-1.6
CO[C@@H]1CN(C)C(=O)c2ccc(NC(=O)Nc3ccc(Cl)cc3)cc2OC[C@@H](C)N(C(=O)Nc2c(C)noc2C)C[C@H]1C,i,1.9
O=C(Nc1ccc(F)cc1)N1CCCCN2[C@@H](CO)[C@@H](c3ccc(-c4cccc(F)c4)cc3)[C@@H]2C1,i,6.4
C[C@H](CO)N1C[C@H](C)[C@H](CN(C)Cc2ccccn2)Oc2ncc(C#CC3(O)CCCC3)cc2C1=O,i,-2.3
C[C@H](CO)N1C[C@H](C)[C@@H](CN(C)C(=O)Nc2ccc(F)cc2)Oc2ccc(NC(=O)C3CC3)cc2CC1=O,i,-1.7
C[C@H]1CN([C@@H](C)CO)C(=O)Cc2cc(NC(=O)Cc3cn(C)c4ccccc34)ccc2O[C@@H]1CN(C)S(C)(=O)=O,i,12.8
C[C@H](CO)N1C[C@H](C)[C@H](CN(C)S(=O)(=O)c2cccs2)OCCCC[C@H](C)Oc2ccc(NC(=O)Nc3ccccc3)cc2C1=O,i,1.0
Cc1noc(C)c1NC(=O)N(C)C[C@H]1Oc2ccc(NC(=O)C3CC3)cc2C(=O)N([C@@H](C)CO)C[C@@H]1C,i,-1.0
O=C(NCC[C@H]1CC[C@@H](NC(=O)C2CC2)[C@H](CO)O1)c1cc(Cl)cc(Cl)c1,i,-1.6
C[C@@H]1CN([C@H](C)CO)C(=O)c2cccc(NC(=O)C3CCOCC3)c2O[C@@H]1CN(C)Cc1ccncc1,i,1.3
C[C@@H]1CN([C@@H](C)CO)C(=O)Cc2cc(NC(=O)Nc3ccc4c(c3)OCO4)ccc2O[C@@H]1CN(C)Cc1ccncc1,i,3.0
O=C(C1CCCCC1)N1C[C@@H]2[C@H](c3ccccc31)[C@@H](CO)N2C(=O)Cc1ccccn1,i,-0.3
C[C@@H]1CN([C@H](C)CO)C(=O)c2cc(C#Cc3ccccc3F)cnc2O[C@H]1CN(C)C(=O)C1CC1,i,2.0
C[C@@H]1CN([C@@H](C)CO)C(=O)Cc2cc(NC(=O)NC3CCCCC3)ccc2O[C@H]1CN(C)C(=O)Nc1ccc(C(F)(F)F)cc1,i,-3.8
C[C@@H]1CN([C@@H](C)CO)C(=O)c2cc(C#CC3CC3)cnc2O[C@H]1CN(C)C(=O)CC1CC1,i,-0.5
C[C@@H]1CCCCO[C@H](CN(C)Cc2ccc(Cl)c(Cl)c2)[C@@H](C)CN([C@@H](C)CO)C(=O)c2cc(NC(=O)c3ccccc3)ccc2O1,i,-1.5
Cc1noc(C)c1S(=O)(=O)N(C)C[C@@H]1OCCCC[C@H](C)Oc2ccc(NC(=O)CCCN(C)C)cc2C(=O)N([C@H](C)CO)C[C@@H]1C,i,6.9
COc1ccc(S(=O)(=O)N2CCC3(CC2)CN(C(=O)CN(C)C)[C@@H](CO)c2c3c3ccc(OC)cc3n2C)cc1,i,34.6*
COCC(=O)N1CC2(CN(Cc3ccccc3Cl)C2)c2c([nH]c3cc(OC)ccc23)[C@@H]1CO,i,1.5
COCC#Cc1ccc2c(c1)O[C@@H](CN(C)Cc1cccnc1)[C@H](C)CN([C@H](C)CO)S2(=O)=O,i,1.9
N#C[C@H]1[C@@H](c2ccccc2-c2ccccc2)[C@@H](CO)N1C(=O)NC1CCCC1,i,-0.5
COc1ccc(NC(=O)Nc2ccc3c(c2)[C@H]2C[C@H](CC(=O)N(C)C)O[C@@H](CO)[C@H]2O3)cc1,i,0.1
C[C@H](CO)N1C[C@H](C)[C@H](CN(C)S(=O)(=O)c2ccc(Cl)cc2)Oc2ccc(NS(=O)(=O)c3cccs3)cc2CC1=O,i,2.2
COc1ccc(NC(=O)N2CCC3(CC2)CN(C(=O)C2CCC2)[C@H](CO)c2c3c3ccc(OC)cc3n2C)cc1,i,1.6
CCCNC(=O)C[C@H]1CC[C@@H]2[C@H](COC[C@@H](O)CN2Cc2ccc(Cl)c(Cl)c2)O1,i,1.6
C[C@H]1CN([C@@H](C)CO)C(=O)Cc2cc(NS(=O)(=O)c3ccccc3)ccc2O[C@@H]1CN(C)S(C)(=O)=O,i,1.7
C[C@H](CO)N1C[C@H](C)[C@@H](CN(C)S(=O)(=O)c2ccccc2)OCCCC[C@H](C)Oc2ccc(NC(=O)Nc3ccc(C(F)(F)F)cc3)cc2C1=O,i,1.3
O=C(c1ccncc1)N1CC2(C1)[C@@H](c1ccccc1)[C@H](CO)N2C(=O)CC1CC1,i,-0.8
Cc1ccccc1-c1ccc([C@@H]2[C@H](CO)N3CCCCN(C(=O)c4cccnc4)C[C@@H]23)cc1,i,3.7
O=S(=O)(N[C@@H]1CC[C@H](CCn2cc(-c3cccc(F)c3)nn2)O[C@H]1CO)c1ccc(F)cc1,i,-2.1
CO[C@H](CN(C)C(=O)c1ccccc1F)[C@H](C)CN([C@@H](C)CO)S(=O)(=O)c1ccc(Cl)cc1,i,0.9
C[C@H](CO)N1C[C@H](C)[C@H](CN(C)Cc2ccccc2)Oc2cc(C#Cc3ccccn3)ccc2S1(=O)=O,i,-1.3
O=C(C[C@H]1C[C@@H]2c3cc(NS(=O)(=O)c4ccc(F)cc4)ccc3O[C@@H]2[C@@H](CO)O1)NCc1ccccc1F,i,1.7
Cc1ccc(S(=O)(=O)Nc2ccc3c(c2)CC(=O)N([C@H](C)CO)C[C@@H](C)[C@@H](CN(C)Cc2ccc(Oc4ccccc4)cc2)O3)cc1,i,0.5
CO[C@H]1CN(C)C(=O)c2ccc(NC(=O)Nc3c(C)noc3C)cc2OC[C@@H](C)N(CC2CC2)C[C@@H]1C,i,-2.9
O=C(C[C@H]1CC[C@@H]2[C@H](COC[C@H](O)CN2C(=O)Nc2cccc(Cl)c2)O1)N1CCCCC1,i,-0.7
COc1ccc2c3c(n(C)c2c1)[C@H](CO)N(C(=O)c1ccc(F)cc1)CC31CCN(C(=O)Nc2ccc(F)cc2)CC1,i,-1.2
CC(C)(O)C#Cc1ccc([C@H]2[C@H]3CN(S(C)(=O)=O)CCCCN3[C@H]2CO)cc1,i,3.5
CCCNC(=O)NC[C@@H]1[C@H](c2ccc(C3=CCCC3)cc2)[C@@H](CO)N1C(=O)CC,i,-10.5
CC(C)CC#Cc1ccc2c(c1)O[C@@H](CN(C)Cc1cccnc1)[C@@H](C)CN([C@H](C)CO)S2(=O)=O,i,1.6
CN1CCN(C(=O)C[C@H]2CC[C@@H]3[C@H](COC[C@H](O)CN3S(=O)(=O)c3cccc(F)c3)O2)CC1,i,-22.3
CC(=O)N1[C@H](CO)[C@@H](c2ccccc2)C12CN(C(=O)c1ccc3c(c1)OCO3)C2,i,-1.0
C[C@H]1CN([C@@H](C)CO)C(=O)c2cc(NC(=O)Nc3ccc(F)cc3)ccc2O[C@H]1CN(C)Cc1ccc(Cl)c(Cl)c1,i,-1.2
C[C@@H]1CN([C@H](C)CO)C(=O)c2cc(C#Cc3ccccn3)cnc2O[C@H]1CN(C)C(=O)CCN1CCCCC1,i,1.9
CN(C)CCCNC(=O)C[C@@H]1C=C[C@@H](NS(=O)(=O)c2ccc(F)cc2)[C@H](CO)O1,i,-1.1

# Next section
SMILES,FGF22 binding,AF4-AF9 inh
CCCC(=O)Nc1ccc2c(c1)C(=O)N(C)[C@H]1CC[C@H](CC(=O)NC3CCCC3)O[C@@H]1CO2,i,-3.5
COc1ccccc1NC(=O)N1C[C@H](O)COC[C@H]2O[C@@H](CC(=O)NCCc3ccccc3)CC[C@@H]21,i,-13.2
COc1ccc2c3c([nH]c2c1)[C@@H](CO)N(C(=O)c1ccc(F)cc1)CC31CCN(C(=O)Nc2ccc(F)cc2)CC1,i,-0.7
Cc1noc(C)c1S(=O)(=O)N(C)C[C@@H]1OCCCC[C@H](C)Oc2ccc(NC(=O)C3CCCCC3)cc2C(=O)N([C@@H](C)CO)C[C@@H]1C,i,0.8
CN1CCN(C(=O)C[C@@H]2CC[C@@H]3[C@H](COC[C@H](O)CN3C(=O)Nc3ccc(Cl)cc3)O2)CC1,i,-7.8
COc1ccccc1C#Cc1ccc2c(c1)[C@@H]1[C@@H](CCN1C(=O)Cc1ccccc1)[C@@H](CO)N2,i,-0.1
C[C@@H]1CN([C@H](C)CO)C(=O)c2cc(NS(C)(=O)=O)ccc2O[C@@H](C)CCCCO[C@@H]1CN(C)Cc1ccc2c(c1)OCO2,i,-4.3
C[C@@H]1CN([C@H](C)CO)C(=O)c2cc(NC(=O)CCC(F)(F)F)ccc2O[C@@H](C)CCCCO[C@@H]1CN(C)C(=O)C1CCCCC1,i,0.0
C[C@@H]1CN([C@H](C)CO)C(=O)c2ccccc2-c2ccccc2CO[C@H]1CN(C)C(=O)[C@H](C)c1ccccc1,i,-1.0
C[C@@H]1CN([C@@H](C)CO)C(=O)c2cc(/C=C/c3ccccc3)cnc2O[C@H]1CN(C)S(=O)(=O)c1ccccc1F,i,4.1
C[C@H](CO)N1C[C@H](C)[C@H](CN(C)Cc2ccccc2F)Oc2ncc(-c3ccccc3F)cc2C1=O,i,1.9
C[C@H]1CN([C@@H](C)CO)C(=O)c2ccccc2-c2ccccc2CO[C@H]1CN(C)S(=O)(=O)c1ccc(C(F)(F)F)cc1,i,-0.1
CC=Cc1ccc2n(c1=O)C[C@H]1[C@H](CO)[C@@H](C(=O)N(C)C)N(CCC(F)(F)F)[C@@H]21 (mixture of isomers),i,-1.5
C[C@H](CO)N1C[C@H](C)[C@@H](CN(C)Cc2ccc(C(=O)O)cc2)OCCCC[C@H](C)Oc2ccc(NC(=O)Nc3ccc4c(c3)OCO4)cc2C1=O,i,-0.5
COc1ccc(S(=O)(=O)N(C)C[C@@H]2OCCCC[C@H](C)Oc3ccc(NS(=O)(=O)c4c(C)noc4C)cc3C(=O)N([C@@H](C)CO)C[C@H]2C)cc1,i,-4.0
Cc1noc(C)c1NC(=O)Nc1ccc2c(c1)C(=O)N([C@@H](C)CO)C[C@H](C)[C@H](CN(C)S(C)(=O)=O)O2,i,1.3

# Structures above containing a Cl atom:
SMILES,FGF22 binding,AF4-AF9 inh
CO[C@@H]1CN(C)C(=O)c2ccc(NC(=O)Nc3ccc(Cl)cc3)cc2OC[C@@H](C)N(C(=O)Nc2c(C)noc2C)C[C@H]1C,i,1.9
O=C(NCC[C@H]1CC[C@@H](NC(=O)C2CC2)[C@H](CO)O1)c1cc(Cl)cc(Cl)c1,i,-1.6
C[C@@H]1CCCCO[C@H](CN(C)Cc2ccc(Cl)c(Cl)c2)[C@@H](C)CN([C@@H](C)CO)C(=O)c2cc(NC(=O)c3ccccc3)ccc2O1,i,-1.5
COCC(=O)N1CC2(CN(Cc3ccccc3Cl)C2)c2c([nH]c3cc(OC)ccc23)[C@@H]1CO,i,1.5
C[C@H](CO)N1C[C@H](C)[C@H](CN(C)S(=O)(=O)c2ccc(Cl)cc2)Oc2ccc(NS(=O)(=O)c3cccs3)cc2CC1=O,i,2.2
CCCNC(=O)C[C@H]1CC[C@@H]2[C@H](COC[C@@H](O)CN2Cc2ccc(Cl)c(Cl)c2)O1,i,1.6
CO[C@H](CN(C)C(=O)c1ccccc1F)[C@H](C)CN([C@@H](C)CO)S(=O)(=O)c1ccc(Cl)cc1,i,0.9
O=C(C[C@H]1CC[C@@H]2[C@H](COC[C@H](O)CN2C(=O)Nc2cccc(Cl)c2)O1)N1CCCCC1,i,-0.7
C[C@H]1CN([C@@H](C)CO)C(=O)c2cc(NC(=O)Nc3ccc(F)cc3)ccc2O[C@H]1CN(C)Cc1ccc(Cl)c(Cl)c1,i,-1.2
CN1CCN(C(=O)C[C@@H]2CC[C@@H]3[C@H](COC[C@H](O)CN3C(=O)Nc3ccc(Cl)cc3)O2)CC1,i,-7.8
